Assay outcomes (PubChem BioAssay)
VDR inhibitor – inhibitors of human vitamin D receptor; VDR-SRC2-3 peptide fluorescence polarization, 2 h; P11473; Potency, µM, for inactives: max response, negative = inhibition, most hits filed as inhibitors; 0.93% of 400,000 active; active means well fitted inhibition curve with a large enough effect; inconclusive means small, poorly fitted or top-dose-only effect, or another doubt; inactive means no such curve, though single readings can be large or run the other way; further: series mostly up to about 120 µM
Target sequence (P11473 whole entry, looked up): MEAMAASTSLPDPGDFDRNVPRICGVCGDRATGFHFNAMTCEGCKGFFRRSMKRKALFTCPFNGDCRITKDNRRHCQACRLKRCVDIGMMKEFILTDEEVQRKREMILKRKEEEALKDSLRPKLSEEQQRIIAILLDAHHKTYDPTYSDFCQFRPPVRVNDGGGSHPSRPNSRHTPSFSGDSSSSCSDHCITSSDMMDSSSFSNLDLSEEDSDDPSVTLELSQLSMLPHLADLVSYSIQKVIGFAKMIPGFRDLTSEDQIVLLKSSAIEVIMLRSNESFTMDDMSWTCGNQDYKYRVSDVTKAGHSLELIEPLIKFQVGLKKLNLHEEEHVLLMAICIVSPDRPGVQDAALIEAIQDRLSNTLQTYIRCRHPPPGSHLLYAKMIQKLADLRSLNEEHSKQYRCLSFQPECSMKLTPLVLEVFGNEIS
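VDR–SRC2-3 interaction, FP format. Cmpds 23 nl via pintool, brief spin, 2 h ambient incubation.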
Active calls of the source: *; ? = inconclusive; & = joins results of further samples. On the % scale 0 is the no-effect control and ±100 the full control effect; potency means the concentration at half of the fitted maximal effect.

SMILES | VDR inhibitor
CCNC(=S)NNc1nncc2ccccc12 | -0.8%
COc1cccc(CN2CCNC(=O)C2CC(=O)NCc2cn3ccc(C)cc3n2)c1OC (configuration not stated) | 1.0%
CCOc1ccc(NC(=S)N2CCCN(Cc3cccc(Cl)c3)C2)cc1 | -0.7%
Cc1ccc(NC(=O)CC2C(=O)NC3CCCCC3N2C(=O)c2ccc(F)cc2)cc1C (configuration not stated) | -5.2%
CCCC(=O)Nc1ccc(C(=O)/C=C/c2ccc(SC)cc2)cc1 | 4.7%
CSCC[C@H](NC(=O)[C@H](CC(C)C)NC(=O)CNC(=O)[C@H](Cc1ccccc1)N(C)C(=O)[C@H](Cc1ccccc1)NC(=O)[C@H](CC(=O)O)NC(=O)[C@@H](N)CC(=O)O)C(N)=O | 7.1%
CSc1ccccc1C(=O)Nc1cccc(C(C)=O)c1 | 39.8µM*
COc1ccc2nc(NNC(=O)c3cc(=O)c4ccccc4o3)sc2c1 | 31.6µM*
Cc1ccc(NNC(=O)c2ccno2)cc1C | ?
Cc1c(N/C=C(\Cl)C(=O)C(F)(F)F)c(=O)n(-c2ccccc2)n1C | -12.3%
CCn1cc(C(=O)N[C@@H](CC(C)C)C(=O)NCCCn2ccnc2)c(=O)c2cc3c(cc21)OCO3 | 1.6%
Cn1c(C(=O)NCCN2CCOCC2)cc2sccc21 | 3.3%
CCN(CC(=O)NCc1ccc(Cl)cc1)C(=O)/C=C/c1cccs1 | 5.1%
COc1ccc(NC(=O)CN(C)S(=O)(=O)c2ccc3nc(C)sc3c2)cc1 | 7.3%
CCCCCOc1ccc(C(=O)CCN2CCOCC2)cc1 | ?
C#CCOCCOCCOCCNc1nc(N2CCOCC2)nc(N2CCN(C(=O)[C@H](CCC(=O)O)n3cc(C(N)Cc4ccc(O)cc4)nn3)CC2)n1 (some centres not stated) | -8.2%
CCOC(=O)c1ccc(NC(=O)CCc2c(C)nc3c(c(C)nn3-c3ccccc3)c2C)cc1 | 10.6%
CC1=NN(C(=O)c2ccc(Cl)cc2)C(O)(c2ccccc2)C1 (configuration not stated) | 11.2%
COc1cc(NC(=O)COC(=O)c2cnc(C)cn2)c(C)cc1[N+](=O)[O-] | 0.3%
COc1ccc(CCNC(=O)CSCc2ccc(Cl)cc2)cc1OC | 11.2%
Cc1ccc(N(CC(=O)Nc2ccccc2C(=O)N2CCOCC2)S(C)(=O)=O)cc1 | 6.2%
COc1ccc(CC(=O)Nc2cccc(-c3csc(C)n3)c2)cc1 | -9.1%
C=CCn1c(CCSCc2ccccc2)n[nH]c1=S | -16.3%
O=C(NCc1ccc2c(c1)OCO2)c1cccc2c1C(=O)N(C1CCCCC1)C2 | -2.4%
CCCc1n[nH]c2c1C(=O)CC(C)(C)C2 | 1.3%
O=C(CSc1ccc(-c2ccccn2)nn1)NCc1ccc(F)cc1 | 9.3%
CCC1Sc2ccc(S(=O)(=O)CCC(=O)Nc3ccccc3Cl)cc2NC1=O (configuration not stated) | -2.4%
COC(=O)Cn1cc(/C=N/NC(=O)c2ccc(C#N)cc2F)c2ccccc21 | 13.7%
COc1ccc(NC(=O)CS(=O)CC(=O)Nc2cc(Cl)ccc2OC)cc1 (configuration not stated) | -1.7%
COc1ccc(NC(=O)CSc2nc3ccccc3n2CC(=O)Nc2cccc(C)c2C)cc1 | -4.2%

Reformatted as labelled records: part of the list above
> CCCc1n[nH]c2c1C(=O)CC(C)(C)C2
- VDR inhibitor: 1.3%

> O=C(CSc1ccc(-c2ccccn2)nn1)NCc1ccc(F)cc1
- VDR inhibitor: 9.3%

> C#CCOCCOCCOCCNc1nc(N2CCOCC2)nc(N2CCN(C(=O)[C@H](CCC(=O)O)n3cc(C(N)Cc4ccc(O)cc4)nn3)CC2)n1 (some centres not stated)
- VDR inhibitor: -8.2%

> COc1cc(NC(=O)COC(=O)c2cnc(C)cn2)c(C)cc1[N+](=O)[O-]
- VDR inhibitor: 0.3%

Further results
SMILES | VDR inhibitor
O=C(c1ccc(-c2ccccc2)cc1)N1CCN(C(=O)c2ccco2)CC1 | -0.9%
c1ccc(CSCc2cn3ccsc3n2)cc1 | -0.6%
COc1ccc(/C=C2\C(=N)N3N=C(CC(=O)N4CCCCC4)SC3=NC2=O)cc1 | 8.6%
S=C(Nc1ccccc1)N1CCN(c2ccc(N3CCOCC3)nn2)CC1 | -2.9%
CCOC(=O)c1[nH]ncc1CN1CCC(Cc2ccccc2)(C(=O)OCC)CC1 | 17.3%
O=C(NC1CC1)c1cc2c(F)cccc2s1 | 2.0%
O=C(Cc1cccc(NC(=O)C2CCCN(C(=O)C3CC3)C2)c1)Nc1cccc(C(=O)N2CCOCC2)c1 (configuration not stated) | -1.2%
CC(C)c1nc2c(c(=O)n(C)c(=O)n2C)n1C | 2.6%
Cc1ccc(S(=O)(=O)N2[C@@H](c3ccc(Br)cc3)C(C(=O)O)=CC[C@H]2c2ccc(Cl)c(Cl)c2)cc1 | ?
COc1cc(/C=C(\C#N)c2nc3ccccc3[nH]2)ccc1OCc1ccc(F)cc1 | -6.2%
CCCCN=Cc1sc2ccc(OCC)cc2c1O | ?
CCC1(C)Cc2c(sc3[nH]c(=S)n(Cc4ccccc4)c(=O)c23)CO1 (configuration not stated) | 4.5%
CCOc1ccc(N2C(=O)CC(NCCc3ccncc3)C2=O)cc1 (configuration not stated) | 19.9%
CCn1c(SCC(=O)NC2CCCC2)nnc1-c1c[nH]c2ccccc12 | -0.6%
CC(=O)c1cccc(S(=O)(=O)NC2CCCCCC2)c1 | -0.1%
COC(=O)Cc1[nH]nc2c1C1(C(=O)N(Cc3ccc(Cl)cc3)c3ccccc31)C(C#N)=C(N)O2 (configuration not stated) | 1.6%
CCN(C(=O)COC(=O)c1ccccc1SCC(=O)NC1CCCCCCC1)C1CCS(=O)(=O)C1 (configuration not stated) | -20.9%
COc1ccc(NC(=O)CSc2nc3sc(C)cc3c(=O)n2C)c(OC)c1 | -19.7%
Cc1ccc(CC(NC(=O)c2ccccc2)C(=O)N2CCCC2C(=O)O)cc1 (configuration not stated) | 1.1%
CC(C)(Oc1ccc(Cl)cc1)C(=O)N1CCN(c2ccccn2)CC1 | -3.8%
Cc1ccc(NC(=O)NCCCCc2ccccc2)cc1 | 9.3%
Cc1cc(C)c(C#N)c(SCc2nnc(-c3ccccc3)o2)n1 | -12.6%
Cc1cc(/C(N)=N/OC(=O)Nc2ccc(Cl)cc2)no1 | 4.9%
COc1ccc(CCNC(=O)Cn2c(=O)nc(-c3ccccc3)c3cc(Cl)ccc32)cc1OC | 13.0%
CCc1ccc(CNC(=O)c2ccc(CSc3nc4ccncc4n3Cc3ccc(OC)cc3)cc2)cc1 | 6.6%
CSc1ccccc1C(=O)NCCOc1cccc(C)c1 | -16.4%
COc1ccccc1-c1c(C)nn2c(N3CCC(C(N)=O)CC3)cc(C)nc12 | -7.0%
CCOC(=O)c1ccc2ncc(C(=O)OCC)c(NCCc3ccc(OC)c(OC)c3)c2c1 | -24.3%
CC(C)Nc1nc(NC(C)C)nc(N(C)C(N)=O)n1 | -2.2%
CCc1ccc(/C=C2\SC(=S)N(CCC(=O)NCCCN3CCOCC3)C2=O)cc1 | 2.8%

(list continues)
smiles	VDR inhibitor
O=C(c1ccc(F)cc1)c1cn[nH]c1-c1ccccc1O	22.0%
OCC1O[C@H](Oc2ccc(O)cc2)C(O)C(O)C1O (some centres not stated)	2.4%
Cc1ccc(S(=O)(=O)N2CCOCC2)cc1NC(=O)COC(=O)CCn1c(C)csc1=O	-11.8%
Cc1ccc(S(=O)(=O)n2nc(OC(=O)c3c(-c4ccccc4Cl)noc3C)cc2N)cc1	-21.3%
COc1ccc(C2OC(=O)CC2C(=O)NC(C)C)cc1 (configuration not stated)	0.5%
O=C(NC(=S)N1CCc2ccccc21)c1ccccc1Br	-10.0%
COc1ccc(C)cc1Nc1ccc(C(=O)O)cc1[N+](=O)[O-]	8.8%
CCCC(=O)OC1=C(C(C)=O)N(Cc2ccccc2)S(=O)(=O)c2ccccc21	3.0%
Cc1ccc2[nH]c(CSc3nnc(NC(=O)COc4ccccc4Cl)s3)cc(=O)c2c1	18.3%
O=C(NCc1ccccc1Cl)c1ccc2nc[nH]c2c1	4.6%
Cn1c(=O)c(C(=O)CSc2nnc(Nc3ccccc3)s2)c(N)n(Cc2ccccc2)c1=O	-5.2%
Cc1cc(C)n(-c2nnc(N3CCN(c4ccc(F)cc4)CC3)nn2)n1	?
Cc1cc(O)c(C(c2ccccc2)N2CCC(C)CC2)c(=O)n1Cc1ccco1 (configuration not stated)	7.7%
COc1cccc(C(=O)NCCSc2c(C)[nH]c3ccccc23)c1OC	-1.1%
CCOc1cc(C2Nc3ccccc3NC3=C2C(=O)CC(C)(C)C3)ccc1OC(C)=O (configuration not stated)	-8.4%
CCOC(=O)c1c(/N=C/N(C)C)sc(C)c1C	-8.9%

Sorted by count of non-hydrogen atoms (largest number first): part of the list above
smiles	VDR inhibitor
Cn1c(=O)c(C(=O)CSc2nnc(Nc3ccccc3)s2)c(N)n(Cc2ccccc2)c1=O	-5.2%
Cc1ccc2[nH]c(CSc3nnc(NC(=O)COc4ccccc4Cl)s3)cc(=O)c2c1	18.3%
COc1cccc(C(=O)NCCSc2c(C)[nH]c3ccccc23)c1OC	-1.1%

(continued)
smiles	VDR inhibitor
COc1cc2c(C(=O)Nc3cc(OC)c(OC)c(OC)c3)cn(C)c(=O)c2cc1OC	-0.7%
COc1ccc(Br)cc1CNC(=O)c1cc2n(n1)CCCN(Cc1ccc(C)cc1)C2=O	-0.1%
CC12CCC(=O)N1C(C(=O)Nc1nc3ccc(F)cc3s1)CS2 (configuration not stated)	6.9%
NS(=O)(=O)c1ccc(CCNC(=O)C2CC(=O)N(Cc3ccccc3Cl)C2)cc1 (configuration not stated)	-13.1%
CCOC(=O)N1CCN(C(=O)CSc2ccc(-c3ccccc3)nn2)CC1	0.3%
N#Cc1cn(Cc2ccccc2)c(=O)[nH]c1=O	18.6%
COCC(C)NC(=O)C1CC(c2cccc(Br)c2)=NO1 (configuration not stated)	1.6%
O=C(c1cccc(Cl)c1)N1CCN(CCc2ccncc2)CC1	9.3%
c1cc(C2OCCN2CC2COC3(CCCC3)O2)ccn1 (configuration not stated)	20.8%
O=C(COC(=O)c1cc(=O)[nH]c2ccccc12)c1ccccc1	-5.6%
COc1ccc([N+](=O)[O-])c(OC)c1C(=O)NC(=O)Nc1c(F)cc(F)cc1F	14.7%
CC1=CC(C)(C)N(S(=O)(=O)c2ccc(C)cc2)c2ccccc21	3.7%&-8.7%
COc1ccc(C(CC(=O)O)NC(C)=O)cc1OC (configuration not stated)	19.1%
COc1ccccc1CCN=C(N)NS(=O)(=O)c1ccc(C)c(C)c1	-5.8%
Cc1nnc(NC(=O)CSc2cn(Cc3ccccc3)c3ccccc23)s1	-21.5%
COC(=O)CC1=C(C(=O)OC)C(c2ccncc2)C(C#N)=C(N)O1 (configuration not stated)	-10.0%
COc1ccc(NC(=O)COC(=O)c2ccc(-n3nc(C)cc3C)cc2)cc1OC	9.1%
Cc1cccc(C)c1OCC(O)CNS(=O)(=O)c1ccccc1C(=O)N1CCOCC1 (configuration not stated)	14.4%
CCc1ccc2oc(C(=O)Nc3nc(-c4ccc(F)cc4)ns3)c(C)c2c1	7.5%
Nc1ccc(C(=O)C(=O)c2ccccc2)cc1	-5.2%
O=[N+]([O-])c1ccccc1COc1ccc(Cl)c2cccnc12	-19.8%
Cc1ccc(S(=O)(=O)NCCc2nnc3ccc(SCc4ccccc4F)nn23)cc1	6.4%
O=C(NC(=S)NNS(=O)(=O)c1ccccc1)c1ccccc1[N+](=O)[O-]	-8.1%
CC(OC(=O)c1cccs1)C(=O)NCc1ccco1 (configuration not stated)	10.4%
CCc1nc(CN(C)C(=O)C2CCC(=O)N(CCc3cccc(F)c3)C2)no1 (configuration not stated)	-2.6%
COC(=O)CN1C2(C#N)CCCCC2CC2CCCCC21C#N (configuration not stated)	2.8%
CCCCN(CC)C(=O)C1CCCN(c2ncnc3onc(C)c23)C1 (configuration not stated)	0.3%
O=C(Nc1nc(COc2ccccc2)cs1)C1CCC1	1.1%
Cc1ccc(N2CCN(c3ccc(C)cc3)C2c2ccccn2)cc1	-8.5%
CCN(Cc1ccc2c(c1)OCO2)C(=O)CSc1nc(C)nc2sc(C)c(C)c12	1.4%
O=C(O)C1CCC(C(=O)O)O1 (configuration not stated)	-12.3%
CC1=NN(c2ccccc2)C(=O)/C1=C\c1cc(C)n(C)c1C	-1.4%
Cc1ccc(-c2c(C(=O)N/N=C/c3c[nH]c4ccccc34)nnn2-c2nonc2N)cc1	-2.7%
N#C/C(=C\c1ccc(-c2ccc(C(=O)O)cc2)o1)C(=O)Nc1ccc(F)cc1	-9.6%
N#Cc1cccc(-c2nnc(SCc3ccccc3C#N)o2)c1	-14.9%
COc1ccc(CN2CCNC(=O)C2CC(=O)NC2CCCCC2)c(OC)c1 (configuration not stated)	-23.1%
CC1CCCN(C(=O)c2cn(-c3ccccc3)nc2-c2cccnc2)C1 (configuration not stated)	-6.3%
CCN1CCN(C(c2cccc(Cl)c2)c2c(O)cc(C)n(CCOC)c2=O)CC1 (configuration not stated)	-14.8%
COc1ccc2sc(N3C(=O)C4CC=C(C)CC4C3=O)nc2c1 (configuration not stated)	21.9%
CC(C)NC(=O)Nc1ccc2c(c1)C(=O)N([C@H](C)CO)C[C@H](C)[C@@H](CN(C)C(=O)NC1CCCCC1)O2	-7.4%
Cc1cc(NC(=O)c2cc([N+](=O)[O-])ccc2Cl)no1	-8.6%
CCc1c(C(=O)NC2CCCC2)csc1C	-5.6%
Cc1cc(C)n2nc(CC(=O)NNC(=O)COc3ccccc3)nc2n1	12.0%
Cc1ccc(-c2nc(CS(=O)(=O)CC(=O)N3CC(C)CC(C)C3)c(C)o2)cc1 (configuration not stated)	?

A portion of the library; the hit share may differ from the screen's.
